Screening results: PubChem BioAssay, National Center for Advancing Translational Sciences (NCATS)
LASV entry inh = inhibitors of Lassa virus binding or cell entry | Lassa virus pseudotype entry inhibition, cell reporter; control for the full effect not named in the record | Potency, µM (doses to about 37.9 µM), for the others: at the top dose activity change, negative = inhibition, actives largely listed as inhibitors | hit rate 1.2% among 300,000; active means well fitted inhibition curve with a large enough effect; inconclusive means small, poorly fitted or top-dose-only effect, or effect the other way; inactive means flat fitted curve, though single readings scatter; tested in HEK293 cells; note: % is set by controls: 0 for no effect and ±100 for the full control effect; nearly all actives have a fitted effect of over 50% in size; luciferase read-out
MARV entry inh = inhibitors of Marburg virus binding or cell entry | hit rate 1.8% among 300,000 | AID 540276 | Potency, µM (doses to about 37.8 µM), without a hit: top-dose activity change, negative = inhibition, hits mostly inhibitors | Marburg virus pseudotyped entry inhibition, cell reporter; control for the full effect not named in the record; about a third of the inactives were read at about 46 µM; active = well fitted inhibition curve with a large enough effect; inconclusive = small, poorly fitted or top-dose-only effect, or effect the other way; inactive = flat fitted curve, though single readings scatter; tested in HEK293 cells; about a fifth of its hits are not listed in these tables; note: % is set by controls: 0 for no effect and ±100 for the full control effect; luciferase read-out
NS1 inh = influenza NS1 inhibition; S. cerevisiae slowed by influenza A NS1, growth recovery by OD600; Potency, µM (top dose mostly 46.1 µM), inactives show at the highest dose activity, positive = more growth; hit rate 0.4% among 270,000; active means well fitted rising curve with a large enough effect; inconclusive means small, poorly fitted or top-dose-only effect; inactive means no such curve, though single readings can be large or run the other way; note: nearly all actives have a fitted effect of over 50% in size
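OD600 was taken as the measure of yeast growth restored by compound in an NS1-expressing S. cerevisiae strain. Cells had been washed out of glucose medium and diluted 1:100 into galactose -URA medium, pH 6.0.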
StopGo reporter = lowers the luciferase signal of an FMDV 2A StopGo reporter; AID 1159524; hit rate 1.2% among 410,000; Potency, µM (titrated, usually from 57.9 µM), for inactives: at the top dose signal change, negative = less light; human cells with a luciferase reporter of 2A StopGo recoding; control for the full effect not named in the record; active = well fitted falling curve with a large enough effect; inconclusive = small, poorly fitted or top-dose-only effect; inactive = no such curve, though single readings can be large or run the other way; tested in HEK293T cells; note: % is set by controls: 0 for no effect and ±100 for the full control effect; nearly all actives have a fitted effect of over 45% in size; luciferase light after 4 h
RE007 growth inh = less growth of the S. pombe RE007 Vpr strain; S. pombe RE007 Vpr strain, BacTiter-Glo ATP luminescence, 24 h; control for the full effect not named in the record; Potency, µM (series often up to 92.2 µM), inactives show at the top dose activity change, negative = less growth; hit rate 0.21% among 360,000; AID 651644; active = well fitted falling curve with a large enough effect; inconclusive = small, poorly fitted or top-dose-only effect; inactive = no such curve, though single readings can be large or run the other way;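 note: % is set by controls: 0 for no effect and ±100 for the full control effect; nearly all actives have a fitted effect of over 50% in size; the assay follows cell death caused by Vpr and the record does not say whether a fall means rescue or toxicity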
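Fission yeast RE007 carrying one integrated HIV-1 vpr copy, seeded at OD 0.01 in PMG+AL medium with 23 nL pinned compound. Grown 24 h at 30 degrees; viability read by BacTiter-Glo luminescence after 5 min.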
Active calls of the source: *; ? = inconclusive; / = no result given; [ ] = another dose, or the depositor's remark. Potency is the fitted concentration of half-maximal effect. This is a subset; the hit share may differ from the screen's.

SMILES	LASV entry inh	MARV entry inh	NS1 inh	StopGo reporter	RE007 growth inh
Cc1csc2ncc(C(=O)N3CCc4ccccc43)c(=O)n12	/	/	9%	0%	-1%
Cc1cccc2c(N=O)c(O)n(CCc3ccccc3)c12	/	/	0%	-11%	-2%
CCOC(=O)N1CCN(C(=O)CSCC(=O)N=c2sc3cc(OC)ccc3n2C)CC1	/	/	-2%	-7%	-5%
COc1ccc(CCNC(=O)c2cccc(Br)c2)cc1OC	/	/	0%	-18%	19%
COc1ccc(C(=O)N/C(=C\c2cn(C)c3ccccc23)C(=O)NCCCN2CCOCC2)cc1	/	/	4%	-1%	10%
COc1cccc(-c2ccc(NC(=O)C3CCCN(Cc4cnn(C)c4)C3)cc2)c1 (configuration not stated)	/	/	-4%	-7%	-5%
O=C(C1=C(O)C(=O)N(CCN2CCOCC2)C1c1ccc(Br)cc1)c1cc2ccccc2o1 (configuration not stated)	/	/	13%	-17%	4%
O=C(CN1C(=O)S/C(=C\c2cccc(Cl)c2)C1=O)NCCCn1ccnc1	/	/	-1%	-20%	1%
CCOC(=O)C1CCCN(C(=O)Cn2ncc3c(=O)oc4ccc(C)cc4c32)C1 (configuration not stated)	/	/	-15%	-8%	6%
O=S(=O)(Nc1ccc(Cl)cn1)c1cccc(S(=O)(=O)c2ccccc2)c1	/	/	-1%	35%[activator]	14%
CCOc1cc2[nH]c(=S)n(CCCN3CCN(C)CC3)c(=O)c2cc1OCC	/	/	29%	-3%	-2%
O=[N+]([O-])c1cncc([N+](=O)[O-])c1Nc1cccc(O)c1	/	/	17%	-18%	9%
Cc1cccc(C2N(c3ccc(F)cc3)C(=O)C3CCCN32)c1 (configuration not stated)	/	/	-8%	-22%	-2%
CC1CCCCC1NC(=O)CCn1c(=O)sc2ccccc21 (configuration not stated)	/	/	16%	1%	4%
CC1CC(C)CN(C(=O)CSc2nnc(N)s2)C1 (configuration not stated)	/	/	8%	-7%	7%
Cc1ccc(S(=O)(=O)N(C)CCCC(=O)Nc2ccccn2)cc1	/	/	-7%	-1%	9%
COc1ccc(CCNC(=O)CCNC(=O)c2ccco2)cc1OC	/	/	23%	-13%	3%
CC[C@]1(c2ccccc2OC)C(=O)N(C(=O)OC)N1C(=O)OC	/	/	3%	?	1%
CCOC(=O)N1CCC(Nc2nc3ccccc3n3cnnc23)CC1	/	/	-6%	?	2%
CC(C)c1ccc(NC(=O)CSc2nc3ncccc3[nH]2)cc1	/	/	15%	-17%	6%
CN(c1cccc(NC(=O)c2ccc(CN3CCc4ccccc4C3)cc2)c1)S(C)(=O)=O	/	/	-5%	?	-3%
CC(=O)c1cccc(NC(=S)NC(=O)c2cncc(Br)c2)c1	/	/	19%	77%[activator]	9%
CC(C)Cn1c(N)c(C(=O)CSc2nnnn2-c2ccc(Cl)cc2)c(=O)n(C)c1=O	/	/	10%	-23%	1%
COc1ccc(-n2nc3c(N4CCC(C(=O)NCc5ccco5)CC4)nnc(C)c3c2C)cc1	/	/	5%	-9%	-9%
COC(=O)c1cc(S(=O)(=O)N2CCCC(C)C2)c[nH]1 (configuration not stated)	/	/	2%	-8%	7%
CC(C)CCOc1cccc(C2c3c(oc4ccccc4c3=O)C(=O)N2CCCN2CCOCC2)c1 (configuration not stated)	/	/	16%	3%	2%
Cn1c(Cn2c(=O)sc3ccccc32)nnc1SCC(=O)Nc1ccc2c(c1)OCO2	/	/	-30%	-21%	-14%
COc1ccccc1CNC(=O)CN1CCN(Cc2ccc(Cl)cc2)C1=O	/	/	14%	-3%	4%
N#Cc1cccc(S(=O)(=O)Nc2c(NC3CCCCC3)c3ccccc3oc2=O)c1	/	/	7%	-10%	-2%
COc1cccc(Oc2c(C)oc3c(CN4CCOCC4)c(O)ccc3c2=O)c1	/	/	18%	-19%	5%
Cc1nc2nc(CNC(=O)OC(C)(C)C)nn2c(C)c1CCC(=O)Nc1ccc2c(c1)OCO2	/	/	12%	-3%	1%
COCCn1c(=N)c(S(=O)(=O)c2ccc(Br)cc2)cc2c(=O)n3ccccc3nc21	/	/	-6%	5%	2%
CCOc1ccc(NC(=O)N(C2CCCCC2)C2CCN(C(C)=O)CC2)cc1	/	/	2%	-8%	-10%
CC(CCN1CCOCC1)c1ccccc1 (configuration not stated)	/	/	8%	-15%	-14%
CCOC(=O)c1c(NC(=O)C2CCCN2S(=O)(=O)c2cccc3nsnc23)sc(C)c1C (configuration not stated)	/	/	-55%	-24%	0%
CCOC(=O)c1ccc(CNC(=O)c2cc(COc3ccccc3SC)on2)o1	/	/	-5%	33%[activator]	-14%
CC(CCc1ccccc1)NC(=O)CN1CCOc2ccccc21 (configuration not stated)	/	/	12%	-28%	-17%
COC(=O)c1ccccc1NC(=O)CSc1nc2c(c(=O)[nH]1)CCC2	/	/	11%	6%	-4%
O=C(N/N=C/c1cc(Cl)cc([N+](=O)[O-])c1O)C(O)(c1ccccc1)c1ccccc1	/	/	-52%	-19%	1%
CSc1ccc(CNC(=O)C2Cc3cc(S(=O)(=O)N4CCCCC4)ccc3N2C(C)=O)cc1 (configuration not stated)	/	/	-22%	5%	-10%
O=C(Cn1ncc2c([nH]c3ccccc32)c1=O)N1CCOCC1	/	/	-2%	-11%	-2%
NS(=O)(=O)c1ccc2nc(NC(=O)C3=COCCO3)sc2c1	/	/	-6%	6%	-4%
COc1cc2c(cc1OC)-c1nnc(-c3cccs3)n1C(C)(C)C2	/	/	-11%	-26%	7%
CCOC(=O)N1CCC(NC(=O)c2ccc3c(c2)N(CC)CCS3)CC1	/	/	1%	-18%	8%
Cc1ccccc1NC(=O)C1CCCN(c2ncnc3onc(-c4ccc(F)cc4)c23)C1 (configuration not stated)	/	/	10%	-22%	-25%
O=C(NCCN1CCN(c2cccc(Cl)c2)CC1)c1cccn2c(=O)c3ccccc3nc12	/	/	-75%	?	-5%
O=C1CCNCCN1[C@H](CO)c1ccccc1	/	/	5%	-15%	8%
O=C(Oc1ccc(OC(=O)c2ccncc2)cc1)c1ccncc1	/	/	-15%	-13%	15%
COc1ccc(-c2cc(C(=O)N3CCN(C(=O)c4ccccc4F)CC3)[nH]n2)cc1	/	/	3%	5%	5%
COc1ccc(NC(=O)Nc2cc(C)ccn2)cc1	/	/	-21%	-2%	7%
CC1CCN(c2c(NCc3ccc(C(=O)NCC4COc5ccccc5O4)cc3)c(=O)c2=O)CC1 (configuration not stated)	/	/	?	-8%	5%
Cc1ccc2c(c1)c(C1=c3ccccc3=NC1=O)c(O)n2C	/	/	-44%	?	-7%
COc1ccc(NC(=O)c2cc(S(=O)(=O)N3CCCCC3)ccc2OC)cc1	/	/	6%	15%	-6%
CC(C)Cn1c(=O)c(C(=O)Nc2ccncc2)c(O)c2ccccc21	/	/	-44%	-13%	-8%
Cn1cc(C(=O)N2CCCCCC2)c(=O)c2cc(S(=O)(=O)N3CCCCC3)ccc21	/	/	-1%	2%	-5%
CCN(CC)CCn1c2ccccc2c2nc3ccccc3nc21	/	/	-25%	-15%	0%
CC(=O)N1CCC(N(CCCOC(C)C)C(=O)Nc2ccc(Cl)cc2)CC1	/	/	5%	-24%	6%
COc1ccc(CCNC(=O)C2CCN(C(=O)c3ccc(Br)cc3)CC2)cc1OC	/	/	12%	-1%	1%
CCCCOc1ccc(C2C(C(=O)c3cccs3)=C(O)C(=O)N2CCN2CCOCC2)cc1 (configuration not stated)	/	/	-6%	44%[activator]	0%
Cc1cc(C)c(S(=O)(=O)Nc2ccccn2)c(C)c1	/	/	9%	56%[activator]	3%

Later entries.
SMILES	LASV entry inh	MARV entry inh	NS1 inh	StopGo reporter	RE007 growth inh
COc1ccc(-c2nc(C#N)c(NCCN(C)C)o2)cc1	/	/	?	0%	-8%
CC(=O)Nc1ccc(S(=O)(=O)Nc2cccc(-c3nc4cc(C)ccc4o3)c2)cc1	/	/	-34%	18%	-12%
COCCCNS(=O)(=O)c1cc2c3c(c1)C(C)C(=O)N3CCC2 (configuration not stated)	/	/	7%	44%[activator]	-3%
CCCn1c(=S)[nH]c2cc(C(=O)N(CCO)Cc3ccccc3)ccc2c1=O	/	/	8%	-21%	-4%
CC1CCCCC1NC(=O)CNC(=S)N1CC2CC(C1)c1cccc(=O)n1C2 (configuration not stated)	/	/	6%	1%	10%
CC1CCC(NC(=O)CNC(=S)N2CC3CC(C2)c2cccc(=O)n2C3)CC1 (configuration not stated)	/	/	9%	-5%	9%
O=C(c1cc2ccccc2oc1=O)N1CCCN(C(=O)c2cc3ccccc3oc2=O)CC1	/	/	4%	-14%	8%
COC(=O)C1=C(C)N(C(C)C)C(=O)C1(NC(=O)c1ccc(C(C)(C)C)cc1)C(F)(F)F (configuration not stated)	27%[46.1 µM]	-10%[46.1 µM]	/	-14%	/
CCOC(=O)COc1ccc(C)cc1C(=O)c1ccn2nc(-c3ccc(Cl)cc3)cc2n1	-9%[46.1 µM]	?	/	8%	/
CCN1CCOC(=O)C1CC(=O)Nc1cccc(OC)c1 (configuration not stated)	8%[46.1 µM]	-3%[46.1 µM]	/	4%	/
Fc1ccc(-c2cc3ncc4c(n3n2)-c2cc(Cl)ccc2OC4)cc1	0%[46.1 µM]	5%[46.1 µM]	/	4%	/
CCOC(=O)c1nnc2c(-c3ccc(OC)cc3)c(C)nn2c1N	26%[46.1 µM]	1%[46.1 µM]	/	0%	/
CCOC(=O)c1c(NC(=O)CSc2cn(CCNC(=O)c3ccccc3F)c3ccccc23)sc2c1CCC2	7%[46.1 µM]	4%[46.1 µM]	/	-17%	/
Cc1ccc(CSc2cn(CCNC(=O)c3cccs3)c3ccccc23)cc1	?	-16%[46.1 µM]	/	?	/
O=C(CC1C(=O)OCCN1Cc1ccccc1)Nc1ccc(F)cc1 (configuration not stated)	22%[46.1 µM]	14%[46.1 µM]	/	6%	/

In the list so far, these contain an aryl thioether with sulfur outside any ring.
SMILES	LASV entry inh	MARV entry inh	NS1 inh	StopGo reporter	RE007 growth inh
CC1CC(C)CN(C(=O)CSc2nnc(N)s2)C1 (configuration not stated)	/	/	8%	-7%	7%
CC(C)c1ccc(NC(=O)CSc2nc3ncccc3[nH]2)cc1	/	/	15%	-17%	6%
CC(C)Cn1c(N)c(C(=O)CSc2nnnn2-c2ccc(Cl)cc2)c(=O)n(C)c1=O	/	/	10%	-23%	1%
Cn1c(Cn2c(=O)sc3ccccc32)nnc1SCC(=O)Nc1ccc2c(c1)OCO2	/	/	-30%	-21%	-14%
CCOC(=O)c1ccc(CNC(=O)c2cc(COc3ccccc3SC)on2)o1	/	/	-5%	33%[activator]	-14%
COC(=O)c1ccccc1NC(=O)CSc1nc2c(c(=O)[nH]1)CCC2	/	/	11%	6%	-4%
CSc1ccc(CNC(=O)C2Cc3cc(S(=O)(=O)N4CCCCC4)ccc3N2C(C)=O)cc1 (configuration not stated)	/	/	-22%	5%	-10%
CCOC(=O)c1c(NC(=O)CSc2cn(CCNC(=O)c3ccccc3F)c3ccccc23)sc2c1CCC2	7%[46.1 µM]	4%[46.1 µM]	/	-17%	/
Cc1ccc(CSc2cn(CCNC(=O)c3cccs3)c3ccccc23)cc1	?	-16%[46.1 µM]	/	?	/
